High-throughput results as filed in PubChem.
MT1-MMP promoter: inhibitors of MT1-MMP promoter transcription, cell-based, luciferase reporter, luminescence (AID 618). MT1-MMP promoter luciferase reporter cells, luminescence. calls from a first round at 10 µM; hits with a dose series show EC50 in µM. hit rate 0.62% among 87,000;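 active = over half of the reporter light lost at 10 µM or EC50 under 50 µM; inactive = the rest and hits that failed the dose series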;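 note: actives suppress MT1-MMP promoter-driven transcription so potencies describe inhibitors; HT1080 fibrosarcoma cells; overnight exposure; toxic or luciferase-blocking compounds were not removed from the actives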
Calls only; i = inactive. An excerpt; count on the stated rates, not on these rows.

SMILES	MT1-MMP promoter
COc1ccc(S(=O)(=O)N2CCC(C(=O)Nc3ccc4c(c3)OCCO4)CC2)cc1OC	i
CNC(=O)[C@H](C)[C@@H]1C[C@@]1(C)[C@@H](NC(=O)OCc1ccccc1)c1ccccc1	i
COC(=O)[C@@]1(Cc2ccccc2)[C@H]2c3cc(C(=O)N4CCCC4)n(CCSCCO)c3C[C@H]2CN1C(=O)c1ccccc1	i
CC(=O)Oc1ccc2c(c1)C(=O)c1ccccc1CO2	i
N#Cc1ccc(C23CC4(C2)[C@H](CN(Cc2ccc(C(F)(F)F)cc2)[C@@H]4c2ccccc2)C3c2ccc(Cl)nc2)cc1 (stereo partly specified)	i
Cc1sc2nc(SCC(=O)NCc3ccco3)n(Cc3ccccc3)c(=O)c2c1C	i
COC(=O)[C@H]1C[C@@H]1[C@H](NC(=O)c1cnccn1)c1ccccc1	i
Clc1ccc(C2[C@H]3CN(CC4CCCCC4)[C@H](c4ccccc4)C34CC2(c2ccccc2)C4)cn1 (stereo partly specified)	i
Cn1cnnc1SCc1cccc(Br)c1	i
CCCN1CCCc2cc(CN(CCCN3CCOCC3)C(=O)Nc3ccc(OCC)cc3)ccc21	i

Rewritten with each value named: entries from further up
structure: Cc1sc2nc(SCC(=O)NCc3ccco3)n(Cc3ccccc3)c(=O)c2c1C
  MT1-MMP promoter: i

structure: COC(=O)[C@H]1C[C@@H]1[C@H](NC(=O)c1cnccn1)c1ccccc1
  MT1-MMP promoter: i

structure: Clc1ccc(C2[C@H]3CN(CC4CCCCC4)[C@H](c4ccccc4)C34CC2(c2ccccc2)C4)cn1 (stereo partly specified)
  MT1-MMP promoter: i

structure: Cn1cnnc1SCc1cccc(Br)c1
  MT1-MMP promoter: i

In the list so far, these contain a carbonyl joined to an NH by a bond outside any ring.
SMILES	MT1-MMP promoter
COc1ccc(S(=O)(=O)N2CCC(C(=O)Nc3ccc4c(c3)OCCO4)CC2)cc1OC	i
CNC(=O)[C@H](C)[C@@H]1C[C@@]1(C)[C@@H](NC(=O)OCc1ccccc1)c1ccccc1	i
Cc1sc2nc(SCC(=O)NCc3ccco3)n(Cc3ccccc3)c(=O)c2c1C	i
COC(=O)[C@H]1C[C@@H]1[C@H](NC(=O)c1cnccn1)c1ccccc1	i
CCCN1CCCc2cc(CN(CCCN3CCOCC3)C(=O)Nc3ccc(OCC)cc3)ccc21	i

Later entries:
SMILES	MT1-MMP promoter
CCCCC(=O)Nc1ccc(C(=O)Nc2cccnc2)cc1	i
COc1cc2[nH]c(=S)n(N(C(C)=O)C(C)=O)c(=O)c2cc1OC	i
COc1ccc(OCCCC(=O)Oc2ccc(OC)cc2)cc1	i
COC(=O)[C@@]1(Cc2ccc(F)cc2)[C@H]2c3cc(C(=O)N(C)C)n(CCSCCO)c3C[C@H]2CN1C(=O)c1ccccc1	i
COC(=O)c1ccc(C(NC(=O)OCc2ccccc2)/C(F)=C/[C@@H](C)C(=O)NCc2cc(F)cc(F)c2)cc1 (stereo partly specified)	i
Cc1cc(N2CCCC2)c(C)cc1C=O	i
COc1ccc(S(=O)(=O)N(C(=O)C(C)C)c2ccc3oc(=O)sc3c2)cc1	i
CC(OC(=O)c1cccnc1SCc1cc(=O)n2ccccc2n1)c1ccccn1 (stereo unspecified)	i
COC(=O)[C@@]1(Cc2ccc(OC)cc2)[C@@H]2[C@@H](CC(=O)[C@H]2CC(=O)C(=O)N(C)C)CN1C(=O)c1ccccc1	i
CCCCSc1nc2c(c(C(F)(F)F)c1C#N)CCC2	i

(list continues)
SMILES	MT1-MMP promoter
COc1ccc(-c2cc(C(F)(F)F)c3c(=O)n(-c4ccccc4)[nH]c3n2)cc1	i
Cc1ccc(NC(=O)Cn2cccc2)c(C)c1	i
O=C(Nc1ccc(Br)cc1)c1ccco1	i
COC(=O)[C@H](Cc1ccccc1)NC(=O)[C@@H]1C[C@H]1[C@@H](NC(=O)OCc1ccccc1)c1ccccc1	i
O=C(Nc1cccc(C(F)(F)F)c1)C1CCCCC1	i
CCN(CC)c1cc(C)c2cc(NC(=O)c3ccc(Br)o3)ccc2n1	i
CC1=N/C(=C/c2ccc([N+](=O)[O-])cc2)C(=O)N1c1ccc(Cl)cc1Cl	i
CCOC(=O)c1cc(CC)sc1NC(=O)c1cc(OCC)c(OCC)c(OCC)c1	i
CCC1=C(OC(=O)N(CC)CC)N2C(=O)OC(=NCCc3c[nH]c4ccccc34)[C@]2(C)[C@H]2C1=CC[C@H]1C(=O)N(C)C(=O)[C@H]12	i
CCc1ccc(C(=O)NC(C(=O)O)C(C)C)cc1 (stereo unspecified)	i

Further compounds follow:
SMILES	MT1-MMP promoter
Cc1ccc(S(=O)(=O)NCCCCCC(=O)Nc2ccccn2)cc1	i
Cc1ccc(CC(=O)N2CC(C)OC(C)C2)cc1 (stereo unspecified)	i
Cc1ccc(S(=O)(=O)N(CC(=O)N2CCN(c3ccc(F)cc3)CC2)C2CCCCC2)cc1	i
CCCN(CCC)CCCOC(=O)c1ccc(Cl)cc1Cl	i
Cc1ccc(N(NC(=O)C(C)(C)O)C(=O)c2ccccc2)cc1C	i
CC1=Nn2c(nc(-c3ccccc3)c2-c2ccccc2)NC(=O)C1Br (stereo unspecified)	i
O=C(Oc1ccc2ccccc2c1)c1cncc(Br)c1	i
CC(C)NC(=S)NNC(=O)C12CC3CC(CC(C3)C1)C2	i
COC(=O)c1ccc(C(NC(=O)OCc2ccccc2)/C(C)=C/[C@@H](C)C(=O)NCc2nn(-c3ccccc3)nc2C)cc1 (stereo partly specified)	i
CCOc1ccccc1Oc1coc2cc(OC)ccc2c1=O	i

Quoted at random: 2 entries already listed
SMILES	MT1-MMP promoter
Cc1ccc(N(NC(=O)C(C)(C)O)C(=O)c2ccccc2)cc1C	i
Cc1ccc(S(=O)(=O)NCCCCCC(=O)Nc2ccccn2)cc1	i

Remaining list, next part
SMILES	MT1-MMP promoter
O=C1CCC([N+](=O)[O-])C(c2ccc(Cl)cc2Cl)N1 (stereo unspecified)	i
COC(=O)C1=C(C)N(CCCC(=O)O)C(=O)NC1c1ccc(Cl)cc1 (stereo unspecified)	i
O=C1c2cccnc2C(Nc2ccccc2)N1Cc1ccco1 (stereo unspecified)	i
COc1ccc([N+](=O)[O-])cc1C1NN=C(c2ccccc2O)S1 (stereo unspecified)	i
CCCCCc1ccc(CC(=O)Nn2c(C)nc3ccccc3c2=O)cc1	i
CCOC(=O)c1cn(Cc2ccccc2)c(C(=O)OC(C)(C)C)c1O	i
Cc1ccc(CNC(=O)[C@@H]2C[C@H]2[C@@H](NP(=O)(c2ccccc2)c2ccccc2)c2ccccc2)o1	i
Cc1onc(-c2ccccc2Cl)c1C(=O)Nc1nc2c(s1)CCCC2	i
Cc1cc(OCCOc2cccc3cccnc23)c(C)cc1Cl	i
CCCCn1c(=O)c(-[n+]2ccccc2)c([O-])c2ccccc21	i

Following part.
SMILES	MT1-MMP promoter
CCCCCCN(C(=O)CCCCCN1C(=O)NC(c2ccc(-c3ccccc3)cc2)C(C(=O)OCc2ccccc2)=C1C)C(C(=O)NCCCC)c1ccccn1 (stereo unspecified)	i
O=C1Nc2ccccc2N(O)N1c1cc(-c2ccccc2Cl)no1	i
CCOC(=O)c1sc2nc(CC(=O)OC)nc(NCc3ccc(F)cc3)c2c1C	i
O=C(CSc1ncn[nH]1)Nc1ccc2c(c1)OCCO2	i
FC(F)(F)c1cc(-c2cccs2)nc(-n2cc(Br)cn2)n1	i
Cn1c(N)c(C(=O)COC(=O)c2cc(-c3ccccc3)nc3ccccc23)c(=O)n(C)c1=O	i
Cn1c(=O)c(C(=O)COC(=O)c2cc(-c3ccco3)nc3ccccc23)c(N)n(Cc2ccccc2)c1=O	i
CNC(=O)/C=C1\NC(C)(C)Cc2ccccc21	i
Cc1ccc(NC2=C(Cl)C(=O)OC2OC(=O)c2ccco2)cc1 (stereo unspecified)	i
CCCN(CCC)Cc1cc2ccccc2c2c1COC2	i

The list goes on.
SMILES	MT1-MMP promoter
CCS(=O)(=O)n1nc(-c2ccc(Cl)cc2)nc1SC	i
CC(NC(=O)Cn1nc(-c2ccccc2)c2ccccc2c1=O)c1ccccc1 (stereo unspecified)	i
CCC1=C2CC[C@H]3C(=O)N(CC(=O)OC)C(=O)[C@H]3[C@H]2[C@@]2(C)C(=O)N(CC3CC3)C(=O)N2C1=O	i
CCOc1ccc(OCC(=O)NCCc2nc3ccccc3[nH]2)cc1	i
Cc1cc(C)c(-n2c(C)cc(/C=C3/NC(=O)NC3=O)c2C)c(C)c1	i
NC(=O)c1ccccc1N/C=C/C(=O)c1ccc(F)cc1	i
COC(=O)[C@H](Cc1ccccc1)NC(=O)[C@H]1C[C@@H]1[C@H](NC(=O)OCc1ccccc1)c1ccccc1	i
O=C(CN1CCCCC1)Nc1ccccc1	i
CCOP(=O)(O)c1ccccc1OCCOCCOc1ccccc1P(=O)(O)OCC	i
FC(F)(F)c1ccc(C2[C@H]3CN(CC4CCCCC4)[C@H](c4ccccc4)C34CC2(c2ccccc2)C4)cc1 (stereo partly specified)	i

(continued)
compound	MT1-MMP promoter
CC(C)CCN1C(=O)CCC1(C)C(=O)NC1CCCCCCC1 (stereo unspecified)	i
CC(C)C(NC(=O)C1CCC(C(C)(C)C)CC1)C(=O)NCc1cccnc1 (stereo unspecified)	i
CC(=O)c1cccc(NC(=O)CCS(=O)(=O)c2cccc3nsnc23)c1	i
CCOC(=O)C1CCN(C(=O)Cn2cccc2C(=O)c2ccccc2)CC1	i
Nc1ccccc1SCC(=O)Nc1ccc(N2CCOCC2)cc1	i
Brc1ccc(-c2nc3ncccn3c2Nc2ccc3c(c2)OCCO3)o1	i
Cc1ccccc1S(=O)(=O)c1c(C)cc(C)n(C(C)C)c1=O	i
COC(=O)C1=C(C)N(CCCC(=O)O)C(=O)NC1c1ccccc1OS(=O)(=O)c1ccc([N+](=O)[O-])cc1 (stereo unspecified)	i
CN1C[C@@H]2C(c3ccccc3)C3(c4ccccc4)CC2(C3)[C@H]1c1ccccc1 (stereo partly specified)	i
Nc1cc(=O)[nH]c(=O)n1CC1CC1	i
CCC/C=C(\CCC)C(NP(=O)(c1ccccc1)c1ccccc1)c1ccc(C(F)(F)F)cc1 (stereo unspecified)	i
COC(=O)CCS(=O)(=O)c1ccc(NC(C)=O)cc1	i
CC1=C(C(=O)OCc2ccccc2)C(c2ccc(C(C)(C)C)cc2)NC(=O)N1CCCCCC(=O)O (stereo unspecified)	i
C=CCn1c(N)cc(=O)nc1SCC(=O)Nc1cccc2ccccc12	i
COC(=O)[C@@H]1C[C@@]2(O)[C@H](O)[C@H](O)[C@H](O)C[C@H]2N1CC(c1ccccc1)c1ccccc1	i

Next part
compound	MT1-MMP promoter
CCN(C(=O)CSc1ncccc1C(=O)OC(C)C)c1cccc(C)c1	i
CCOc1ccc(S(=O)(=O)n2cc(-c3ccccc3)c(N)n2)cc1	i
O=[N+]([O-])c1nn(-c2ccc3c(c2)OCCO3)n(O)c1=NC1CCCC1	i
CCC1CCC(C(=O)NC(C(=O)Nc2ccc3c(c2)OCCO3)C(C)C)CC1 (stereo unspecified)	i
CC1=C(C(=O)OCc2ccccc2)C(c2ccccc2OC(=O)c2cccs2)NC(=O)N1CCCC(=O)O (stereo unspecified)	i
Cc1onc(-c2ccccc2)c1C(=O)NCC1CCN(C(=O)c2c(-c3ccccc3)noc2C)CC1	i
CCOc1ccccc1OCCOc1ccccc1OC(C)C	i
Cc1ccc(-n2c(C)nc3c(cnn3-c3ccccc3Cl)c2=O)cc1C	i
Nc1nc(SCc2c(Cl)cccc2Cl)n[nH]1	i
COc1ccc(OC)c(C(=O)c2ccc(C(=O)c3cc(OC)ccc3OC)cc2)c1	i
CCCN(CCC)C(=O)CSc1nc2ccccc2c(=O)n1CC1COc2ccccc2O1 (stereo unspecified)	i
CCc1nc2ccccc2[nH]1	i
Cc1ccc(N=C(NOC(=O)c2ccccc2)c2nonc2N)c(C)c1	i
Cc1ccc(Cl)c2c1NC(=O)C2(O)CC(=O)c1ccc(Br)cc1 (stereo unspecified)	i
COC(=O)c1cc(OC)c(OC)cc1NC(=S)N1CCCC(CO)C1 (stereo unspecified)	i

Additional compounds follow:
compound	MT1-MMP promoter
CC1C(c2ccccc2)=[N+]([O-])C2(CCCCC2)N1O (stereo unspecified)	i
C/C(=C\C(=O)c1ccccc1)Nc1ccc(N2CCOCC2)cc1	i
CC1CCN(C(=O)CCNC(=O)Cn2cnc3sc4c(c3c2=O)CCCC4)CC1	i
O=C1NC2(CCCCC2)C(=O)N1CCS(=O)(=O)Oc1ccccc1	i
CCOC(=O)C1=C(C)N(CCCC(=O)O)C(=O)NC1c1ccc2ccccc2c1 (stereo unspecified)	i
CC(C)NC(=O)c1ccc(-c2cc(C(F)(F)F)ccc2Cl)o1	i
O=C(/C=C/Nc1cccc(F)c1)c1ccco1	i
Cc1ccc(-c2nc(=S)c3c(n2CC2CCCO2)CC(C)(C)OC3)cc1 (stereo unspecified)	i
O=C(NC1CC1)c1cc(F)c(F)cc1Cl	i
CCCOc1ccc(-c2nc(C#N)c(N3CCc4ccccc4C3)o2)cc1	i
CCOC(=O)C1=C(CCc2ccccc2)NC(=O)NC1c1ccc(Cl)cc1 (stereo unspecified)	i
CCn1c(SCC(=O)Nc2ccc3c(c2)OCCO3)nnc1-c1cccs1	i
CCC#CCOCC(=S)Nc1ccccc1	i
CCc1c2c(nc3cccc(C(C)C)c13)-c1cccc(=O)n1C2	i
CC1(C)Cc2ccccc2-c2nc(-c3ccccc3)oc(=O)c21	i

(further entries)
compound	MT1-MMP promoter
COc1cc2[nH]c(=O)n(CCC(=O)NCCC(C)C)c(=O)c2cc1OC	i
COC(=O)C1=C(C)N(CCCC(=O)O)C(=O)NC1c1ccc(-c2ccccc2)cc1 (stereo unspecified)	i
CCCC[C@@H]1C[C@H]1C(NC(=O)c1ccco1)c1ccccc1C(F)(F)F (stereo partly specified)	i
COC(=O)[C@@H]1C[C@H]1[C@@H](NC(=O)c1cccnc1)c1ccccc1	i
COC(=O)[C@@]1(Cc2ccc(F)cc2)[C@H]2c3cc(C(=O)N(C)C)n(C)c3C[C@H]2CN1C(=O)c1ccccc1	i
CCCc1nnc(NC(=O)c2ccc(N3C(=O)C4C5C=CC(C5)C4C3=O)cc2)s1 (stereo unspecified)	i
Cn1cnnc1SC1CCCCC1NS(=O)(=O)c1ccccc1 (stereo unspecified)	i
